Calb biofilm kill = mixtures killing C. albicans biofilm | C. albicans biofilm persisters + clotrimazole, fluorescence viability; primary screen in compound mixtures of four per well | inhibition, % at 7.6 µM | 120,000 compounds, 0.02% hits;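 active = inhibition above 30.3% in the primary screen of four-compound pools, then above 30% when the compound was retested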;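 note: compounds exposed to preformed 24 h biofilms for 48 h; the number belongs to the whole pool; some results filed as inactive read as strong as hits; inactives centre near 12; 0% = biofilm with clotrimazole alone and 100% = kill control; retested singly at about 60 µM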
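System: C. albicans CAF4-2 wild-type biofilms; Medium: RPMI/MOPS medium, pH 7.0; Reagent: Clotrimazole, 50 µg/mL; Times: biofilm formation 24 h, compound exposure 48 h, 37 °C; Detection: 2-h Alamar Blue fluorescence, 535/590 nm excitation/emission; Evaluation: percent inhibition of biofilm viability.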
The depositor's hits bear a star. Not all compounds are listed; count on the stated rates, not on these rows.

canonical_smiles	Calb biofilm kill
CC1=NN(c2nc3ccccc3s2)C(O)(C(F)(F)F)C1 (stereo not drawn)	15.4
CCSc1nnc(NC(=O)CC(C)C)s1	12.3
Cc1cc2c(=O)oc(-c3ccccc3Br)nc2s1	8.1
COc1cc2c(cc1Cl)C(=O)C(F)(c1ccccc1)C(=O)N2 (stereo not drawn)	12.5
COc1cc(OC)c(/C=N/NC(=O)c2ccncc2)cc1Br	10.1
NS(=O)(=O)c1ccc(CCNC(=O)c2ccc(Br)s2)cc1	14.3
N#Cc1c(/N=C/c2ccc(Br)s2)sc2c1CCC2	13.1
S=C(NCCc1ccccc1)N1CCN(C2CCCCC2)CC1	1.2
CC(Sc1nnc(-c2ccccc2Br)n1-c1cccc(C(F)(F)F)c1)C(N)=O (stereo not drawn)	-7.3
COc1cc(C(=O)N2CCN(c3ccccc3)CC2)c([N+](=O)[O-])cc1OC	-2.5
CC(C)(C)OC(=O)N/N=C/c1cccn1-c1ccc([N+](=O)[O-])cc1	23.9
Cc1cc(C(=O)OCC(=O)c2cccs2)c2ccccc2n1	27.0
Nc1nc(Cl)nc2c1ncn2[C@@H]1O[C@H](CO)[C@@H](O)[C@H]1O	10.7
CCOc1ccc(NC(=O)CCN2C(=S)NC(C)(C)CC2C)cc1 (stereo not drawn)	20.5
Nc1nnc(Sc2ncccc2[N+](=O)[O-])s1	9.4
COc1ccccc1C(=O)Nc1nc2cc3c(cc2s1)OCCO3	16.6
CCCCC(=O)NC(=S)NNC(=O)CC	2.0
Cc1ncoc1C(=O)NCCC(c1ccccc1)c1ccccc1	14.9
COc1ccc(CCn2c(-c3ccncc3)n[nH]c2=S)cc1OC	16.0
CCCN1C(=O)/C(=C/c2ccc(C)o2)NC1=S	12.7
CC(/C=N/NC(=O)CCn1nnc2ccccc21)=C\c1ccccc1	9.1
CCOC(=O)c1c(C)oc2c1c(CN1CCN(CCO)CC1)c(O)c1ccccc12	-8.2
O=C(/C=C/c1ccccc1)CC(=O)c1ccccc1O	16.1
O=C(NNS(=O)(=O)c1ccccc1[N+](=O)[O-])c1ccncc1	17.9
O=C(NNc1cccc(Cl)n1)Nc1ccc(F)cc1	17.4
C[C@@H](C(=O)Nc1ccc2ccccc2c1)[C@H]1C[C@]1(C)[C@H](NP(=O)(c1ccccc1)c1ccccc1)c1ccccc1	8.3
CCOC(=O)c1cc([N+](=O)[O-])sc1NC(=O)c1ccc(S(=O)(=O)N2CC3(C)CC2CC(C)(C)C3)cc1 (stereo not drawn)	0.8
CCn1c(SCC(=O)OC(C)C)nnc1-c1ccccc1	14.3
O=C(CC(NC(=O)c1ccccc1)c1ccccc1)Nc1ccc(F)c(F)c1 (stereo not drawn)	20.6
Cc1ccc(C(=O)N/C(=C\c2ccc(-c3ccc(Br)cc3)o2)C(=O)NCCCN(C)C)cc1	4.9
Cc1cc(C)n(-c2nc(C(F)(F)F)nc3ccccc23)n1	-14.7
Cc1cc(NC(=O)CCSc2ccc(Cl)cc2)no1	23.1
COc1ccc(S(=O)(=O)NCc2ccco2)cc1N(C)S(=O)(=O)c1ccccc1	11.4
CC(C)c1ccccc1NC(=O)COC(=O)COc1ccccc1[N+](=O)[O-]	13.2
O=C(NNC(=O)C1CCN(Cc2cccc(F)c2)CC1)c1cccs1	15.0
Cc1ccc(S(=O)(=O)N(C)c2ccc(OCC(=O)Nc3nc4ccccc4s3)cc2)cc1	11.7
COc1ccc(Cl)cc1N(C(=O)Nc1cccc(Cl)c1)C1=NCC(C)S1 (stereo not drawn)	22.6
S=c1[nH]nc(-c2n[nH]c3c2CCC3)n1/N=C/C=C/c1ccco1	9.8
Cc1ccc(-c2csc3nc[nH]c(=S)c23)cc1	13.4
O=C(CCCN1C(=O)/C(=C/c2ccccc2)SC1=S)Nc1ccccc1O	-3.9
Cn1ncc(Cl)c(Oc2ccc(C(C)(C)C)cc2)c1=O	11.1
C/C(Cc1ccccc1)=N\NC(=O)C1CCCCC1	20.1
CCCc1nc(N2CCN(S(=O)(=O)c3ccc(Cl)cc3)CC2)c2c(C)c(C)sc2n1	19.8
O=C(Nc1ccc(COc2ccccc2)cc1)c1cccc([N+](=O)[O-])c1	10.4
COc1ccc(Cl)cc1CSc1ncn[nH]1	13.5
O=C(c1ccc([N+](=O)[O-])cc1Cl)N1CCN(c2ccccn2)CC1	8.6
O=C(Nc1nnc(C2=COCCO2)o1)c1ccc(S(=O)(=O)N2CCCC2)cc1	8.6
O=C(Nc1cccc(C(=O)N2CCN(c3cccc(Cl)c3)CC2)c1)c1ccccc1	17.4
COc1ccc(OCCCC(=O)Nc2ccc(N3CCOCC3)cc2)cc1	4.2
COc1ccc2oc(=O)c(/C(C)=N/NC(=O)c3ccncc3)cc2c1	12.9
CCOc1ccc(N=C(/C(C(=O)C(=O)N2CCOCC2)=C(\O)c2ccccc2)c2ccccc2)cc1	17.2
Cc1ccc(N2CC(=O)N(CC(=O)O)C2=O)cc1	23.2
CC(Oc1ccccc1F)C(=O)Nc1ccc2ccccc2c1 (stereo not drawn)	9.9
CCOC(=O)Cn1c(=N)n(CCOc2ccc(Br)cc2)c2ccccc21	23.3
O=C(C[n+]1cn(C(F)F)c2ccccc21)c1ccc(Br)cc1	9.9
FC(F)Oc1ccccc1NC(=S)NCc1ccco1	-4.7
O=C(CCC(=O)c1ccccc1)NCc1ccccc1	17.8
Cc1cc(C)cc(NC(=O)N2CCN(C/C=C/c3ccccc3)CC2)c1	2.2
CCOC(=O)c1c(C)n(-c2ccc(C)cc2)c2ccc(OCC(O)CNCCCO)cc12 (stereo not drawn)	5.2
O=C(c1ccc2ccccc2c1)C1CCCN(S(=O)(=O)c2cccnc2)C1 (stereo not drawn)	0.1

The list goes on:
canonical_smiles	Calb biofilm kill
COCCNC(=O)c1ccccc1NC(=O)CCSc1ccccc1	12.3
COc1ccccc1C(=O)NNC(=O)CCCN1C(=O)/C(=C/c2cccs2)SC1=S	-6.2
C1CC1Cc1noc(CN2CCN(C3C4CC5CC(C4)CC3C5)CC2)n1 (stereo not drawn)	-9.3
O=C1CSC(c2ccccc2[N+](=O)[O-])N1c1cccc(F)c1 (stereo not drawn)	11.0
Cc1ccc2cc(NC(=O)Cc3ccccc3)ccc2n1	9.4
Cc1ccc(NC(=O)CN2C(=O)N/C(=C/c3ccc(C)s3)C2=O)cc1	10.2
O=C(NCCc1ccccc1)c1ccccc1NC(=O)C1CCCCC1C(=O)O (stereo not drawn)	6.7
O=C(O)c1cc(N2C(=O)C3C4C=CC(C4)C3C2=O)ccc1N1CCOCC1 (stereo not drawn)	18.5
NC(=O)C1CCN(c2nc(-c3ccc(Br)cc3)cs2)CC1	9.8
NC(=O)c1sc2nnc(-c3ccccc3)c(-c3ccccc3)c2c1N	26.4
COc1ccc(CCC(=O)NC(C)C)cc1	3.9
COc1ccc(CCNCC(=O)N2C(C)CCCC2C)cc1OC (stereo not drawn)	10.4
COC(=O)c1ccc(C(=O)NC(=S)Nc2nc3c(s2)CCCC3)cc1	20.0
C/C=C\C=C/C(=O)Nc1cccc(C2=NOC3(C2)C[C@@H](C(N)=O)N(C(=O)CCCCC)C3)c1 (stereo partly drawn)	12.1
O=C(Cn1nnc2ccccc21)OCC(=O)c1ccc(F)cc1	6.6
CC1CN(c2nc3ccccc3cc2-c2ccccc2)CC(C)O1 (stereo not drawn)	4.3
Cc1ncc([N+](=O)[O-])n1CC(=O)N/N=C/c1ccccc1F	13.9
C#CCOc1ccc(/C=N/NC(=O)c2cccnc2)cc1OCC	2.1
COc1ccc(C)cc1-n1c(C)cc(C=O)c1C	4.2
O=C(CO/N=C/c1ccccc1OC(F)F)NC1CCCCC1	18.9
CC(Cc1cccs1)NC(=O)c1cccs1 (stereo not drawn)	21.3
Cc1nn(Cc2ccccc2Cl)c2sc(C(=O)Nc3ccccc3N3CCOCC3)cc12	6.6
Oc1ccc(Cl)cc1C1=NNC(c2cc(Br)cc3c2OCOC3)C1 (stereo not drawn)	6.2
COc1ccc(S(=O)(=O)Nc2cccc(N(C)S(C)(=O)=O)c2)cc1Br	17.6
Clc1cccc(-c2nc(NCCCN3CCOCC3)c3ccccc3n2)c1	18.6
Cc1ccccc1CSCC(=O)Nc1c(C)n(C)n(-c2ccccc2)c1=O	8.7
O=C(Nc1ccccc1)NC1CCCc2ccccc21 (stereo not drawn)	16.3
Cn1cccc1CC(=O)NNC(=S)NC(=O)c1ccc(F)cc1	-2.9
CCC(=O)N1CCN(c2ccnc3cc(Cl)ccc23)CC1	25.8
C#CCOCCOCCOCCNc1nc(N2CCN(C(=O)[C@H]([C@@H](C)CC)n3cc([C@@H](N)Cc4ccc(O)cc4)nn3)CC2)nc(N2CCN(C(=O)[C@H](CCCCN)n3cc([C@@H](N)CC(C)C)nn3)CC2)n1	12.1
Cc1ccccc1SCCNC(=O)CCc1ccccc1	30.5
Cc1ccc(NC(=S)NCC2CCN(C(C)c3ccccc3)C2)cc1C (stereo not drawn)	23.8
CCC(NC(=O)C1CCC1)c1ccc(C)cc1 (stereo not drawn)	20.3
O=C(NNC1=C(C(=O)C(F)(F)F)CCC1)c1ccncc1	14.6
COc1ccc(C(=O)N=c2sc3ccccc3n2C)cc1	12.7
CN1CCN(CCNC(=O)Nc2ccc([N+](=O)[O-])cc2)CC1	11.8
CN(CC(=O)Nc1ccc(N2CCOCC2)cc1)Cc1c(O)ccc2ccccc12	10.3
CCOC(=O)C1(CCc2ccccc2)CCN(C(=O)c2occc2C)CC1	13.1
Cn1cc(CCNC(=O)CCc2nnc(CCCCc3ccccc3)o2)cn1	3.6
O=C(NCC(=O)N(c1cccnc1)C(C(=O)NC1CCCC1)c1ccc(F)cc1)c1ccco1 (stereo not drawn)	13.0
COC(=O)[C@H](CCSC)NC(=O)c1cccnc1SC	17.5
Cc1cc(C)nc(NS(=O)(=O)c2ccc(NC(=O)CSc3nc(-c4ccccc4)c(C#N)c(=O)[nH]3)cc2)n1	9.8
S=c1[nH]nc(Cc2noc3ccccc23)n1-c1ccc(Cl)cc1	12.0
Cc1c(C(c2cccc(O)c2)c2c(C)n(C)n(-c3ccccc3)c2=O)c(=O)n(-c2ccccc2)n1C	22.8
O=C(Nc1nnc(-c2ccc(Cl)cc2)o1)C1CCCCC1	14.1
Cc1ccc(Nc2c3c(nc4ccccc24)CCC3)cc1	23.5
Cc1c(N2C(=O)c3ccc(F)cc3C2=O)c(=O)n(-c2ccccc2)n1C	8.3
COc1ccc(C(=O)Nc2c(Cl)cc(Cl)cc2C(=O)NCCN2CCOCC2)cc1	10.9
CCOCC(=O)N1CCN(c2cccc(Cl)c2)CC1	-1.5
CCOc1ccccc1OCCCCOc1ccccc1F	22.9
CCN(CC)CCNC(=O)c1ccc(NC(=O)/C=C/c2cc(OC)c(OC)c(OC)c2)cc1	11.9
CCCn1nc(C(=O)Oc2ccc3c(C)cc(=O)oc3c2)c2ccccc2c1=O	9.1
Cc1c(Cc2c(C)n(C)n(-c3ccccc3)c2=O)c(=O)n(-c2ccccc2)n1C	-2.8
CCN1CCS/C1=C\C=C\C1=[N+](CC)CCS1	9.7
Cc1cccc(N=Cc2cc(Br)cc(Cl)c2O)c1	5.7
Cc1cccc(NC(=O)COC(=O)c2ccc3c(c2)OCO3)c1C	7.8
Cc1cccc(S(=O)(=O)N/N=c2\sc3ccccc3n2C)c1	7.4
COc1ccccc1Cn1cccc1C=O	7.0
C=CCNC(=O)NC(=O)COC(=O)C(C)Oc1ccc(Cl)cc1Cl (stereo not drawn)	23.1
COCC(C)NS(=O)(=O)c1ccccc1 (stereo not drawn)	10.5

(more compounds)
canonical_smiles	Calb biofilm kill
CCOc1ccc(OCc2nnc(SCC(=O)NC3CCS(=O)(=O)C3)n2-c2ccc(Cl)cc2)cc1 (stereo not drawn)	8.8
O=C(CCSCc1ccccc1F)NCCc1ccccc1	10.1
Cc1ccc(Cl)c2c1=NC(=O)C=2c1[nH]c(=S)[nH]c1O	10.5
COC(=O)N/N=C/c1cc(Cl)cc(Cl)c1OCc1ccccc1	19.3
CN(C)CCn1c(=S)[nH]c2ccc(Cl)cc2c1=O	11.0
O=C1/C(=C/c2ccc(O)c(O)c2)SC(=S)N1Nc1ccccc1	13.8
Cc1cc(C)c(NC(=O)CSc2nc3[nH]ncc3c(=O)[nH]2)c(C)c1	9.2
COc1ccc(Nc2ncnc3scc(-c4ccc(OC)cc4)c23)cc1	17.8
Cc1ccc(NC2=NCC(=O)N2Cc2ccccc2)c(C)c1	20.0
CC(C)OC(=O)C(=O)NNc1ccccc1	16.3
COc1ccc(C=Nc2cccc3ncccc23)cc1	18.2
CSc1nc(N)c2c(n1)OC(N)=C(C#N)C2c1cccnc1 (stereo not drawn)	15.6
CC(=O)N1N=C(c2ccc(C)cc2)OC1c1ccc(Br)cc1 (stereo not drawn)	2.3
O=C(Cc1c[nH]c2ccccc12)Nc1cccc(S(=O)(=O)N2CCCCC2)c1	9.2
O=C1NCCN(Cc2ccc(F)cc2)C1CC(=O)N1CC=C(c2ccccc2)CC1 (stereo not drawn)	0.7

Compound activity (PubChem BioAssay)
